Assay outcomes from PubChem.
HNF4A DNA FP: change in binding of human HNF4 alpha to DNA; P41235; HNF4a-FITC DNA binding, fluorescence polarization, 1 h; activity change, % at 10 µM; 0.3% of 360,000 active; AID 1224865; in the data active means activity change above about 30%, passing the limit was not always enough;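 further: controls were the assay level and a saturating level of protein; the project sought stronger binding though the title names inhibitors; some compounds called inactive have numbers as strong as hits; positive values seem to mean higher polarization but the record does not say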
Target sequence (P41235 whole entry, looked up): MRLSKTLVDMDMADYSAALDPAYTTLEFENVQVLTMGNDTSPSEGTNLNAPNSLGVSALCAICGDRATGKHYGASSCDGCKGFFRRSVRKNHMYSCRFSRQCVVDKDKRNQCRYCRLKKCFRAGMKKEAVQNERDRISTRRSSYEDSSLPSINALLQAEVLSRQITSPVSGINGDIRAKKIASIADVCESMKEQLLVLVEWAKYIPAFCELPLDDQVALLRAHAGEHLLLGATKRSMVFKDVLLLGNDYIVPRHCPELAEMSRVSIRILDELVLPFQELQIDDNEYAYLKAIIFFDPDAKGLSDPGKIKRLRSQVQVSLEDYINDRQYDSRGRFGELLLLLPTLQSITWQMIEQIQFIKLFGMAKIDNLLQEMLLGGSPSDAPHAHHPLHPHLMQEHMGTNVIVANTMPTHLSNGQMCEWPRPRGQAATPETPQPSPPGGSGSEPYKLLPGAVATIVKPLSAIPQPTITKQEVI
Vif A3G: HIV-1 Vif–A3G interaction blockers – biochemical, TR-FRET, GST-Vif 1-94, biotin-A3G peptide, dose response retest, primary screen (AID 1117319). TR-FRET GST-Vif / biotin-A3G peptide binding; higher % means a stronger effect; test concentration not given here; strong numbers were not always called active. inhibition, %, or IC50 in µM where a hit was titrated. 0.57% of 260,000 active;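 active means above the screen mean plus three standard deviations and confirmed in dose response; inconclusive means results disagree or hit not tested in dose response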;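 further: Vif residues 1-94 fused to GST binding biotinylated APOBEC3G peptide 110-148; 0% = full assay without inhibitor and 100% = GST in place of GST-Vif; retest series ran down from 100 µM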
E coli growth: inhibitors of Escherichia coli growth | OD600 absorbance (no concentration beside the values) | AID 1053175 | OD600, 23 h; active compounds read low | 0.21% of 330,000 active;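 active means OD600 absorbance below the run mean of sample wells minus 3.6 SD, in any replicate, cut at about 0.56 in these data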;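 further: stock transfer was 300 nL into about 60 µL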
* marks the source's active call; other numbers are inactive results; ? = inconclusive; nt = not tested or not shown.

SMILES	HNF4A DNA FP	Vif A3G	E coli growth
COc1c(Br)cc2c(C)c(C(=O)N3CCOCC3)oc2c1Br	nt	?	0.74
Cc1ccc(/C=C2/SC(=S)N(CCC(=O)N3CCN(c4ccccc4)CC3)C2=O)cc1	nt	8%	0.71
Cc1ccc(/C(O)=C2/C(=O)C(=O)N(CCCn3ccnc3)C2c2ccccn2)cc1 (stereo unspecified)	nt	-4%	0.68
Cc1cccc2c(Cl)cc(=O)[nH]c12	nt	-4%	0.71
COc1ccc(C2CC(=O)C(C=NCCN3CCNCC3)=C(O)C2)cc1OC (stereo unspecified)	nt	20%	0.69
CC1CCC(NC(=O)CN2C(=O)COc3ccc(S(=O)(=O)N4CCCC4)cc32)CC1 (stereo unspecified)	nt	2%	0.71
O=C(c1cnn(C(=O)c2cccc(S(=O)(=O)N3CCOCC3)c2)c1)c1cc(Cl)cc(Cl)c1O	nt	0%	0.61
Cc1ccc2c(NC(=O)C3CC3)c(C)ccc2n1	nt	2%	0.72
O=C(c1ccc(N2CCCCCC2)c([N+](=O)[O-])c1)N1CCc2ccccc21	nt	6%	0.68
CC1(C)Cc2c(c(-c3ccccc3)nc3sc4c(=O)[nH]c(=S)[nH]c4c23)CO1	nt	-8%	0.7
Clc1ccc(-c2n[nH]c3c2Cc2ccccc2-3)cc1Cl	nt	0%	0.67
Cc1ccc(NC(=O)c2cc3c(=O)oc4ccc(C)cc4c3s2)nc1	nt	-8%	0.73
Brc1ccc2[nH]c3c(N4CCc5ccccc5C4)ncnc3c2c1	nt	?	0.72
O=C(N/C(=C\c1cn(-c2ccccc2)nc1-c1ccccc1)C(=O)N1CCOCC1)c1ccccc1	nt	9%	0.68
COc1ccc2[nH]cc(C(=O)CN3CCN(C/C=C/c4ccccc4)CC3)c2c1	nt	-1%	0.73
Cc1cc(NC(=O)COc2cccc3cccnc23)no1	nt	13%	0.65
Cc1ccc(N=Nc2c(N)[nH]n3c(=O)c4c(nc23)CCCC4)cc1	nt	8%	0.71
CCn1cc(C(=O)NC2CCc3ccccc32)c(=O)c2ccc(C)nc21 (stereo unspecified)	nt	-5%	0.65
Cc1ccc2c(c1)nnn2C1CCN(C(=O)NC23CC4CC(CC(C4)C2)C3)CC1	nt	-4%	0.7
Cc1ccc(S(=O)(=O)N2CCC(=O)N(C(COCc3ccc(Cl)c(Cl)c3)Cc3ccccc3)CC2)cc1 (stereo unspecified)	nt	24%	0.7

Three structures out of the list, ordered by number of heavy atoms, highest first:
SMILES	HNF4A DNA FP	Vif A3G	E coli growth
COc1c(Br)cc2c(C)c(C(=O)N3CCOCC3)oc2c1Br	nt	?	0.74
Cc1cc(NC(=O)COc2cccc3cccnc23)no1	nt	13%	0.65
Cc1cccc2c(Cl)cc(=O)[nH]c12	nt	-4%	0.71

More structures follow.
SMILES	HNF4A DNA FP	Vif A3G	E coli growth
CCn1cc(C(=O)Nc2ccc(-n3cnnn3)c(OC)c2)c(=O)c2ccc(C)nc21	nt	2%	0.63
Cc1cc2cc(CCNC(=O)CC(C)C)c(=O)[nH]c2cc1C	nt	-6%	0.73
CCOC(=O)C1=C(O)/C(=C\c2ccc(CNC(=O)C(=O)Nc3ccc(C)c(C)c3)o2)N=C1C	nt	?	0.71
COc1ccc(OC)c(NC(=O)c2c(NC(=O)c3ccco3)sc3c2CCC3)c1	nt	6%	0.65
CCOC(=O)N1CCC(NC(=O)c2ccc3c(c2)sc2nc(-c4cccc(OC)c4)cn23)CC1	nt	-32%	0.8
COc1ccc(C2c3c(oc4ccc(Cl)cc4c3=O)C(=O)N2Cc2ccco2)cc1OC (stereo unspecified)	nt	?	0.79
COC(=O)C1=C(C)NC2=C(C(=O)CCC2)C1c1ccsc1 (stereo unspecified)	nt	-1%	0.75
O=C(c1cccs1)N(CCO)Cc1cc2cc3c(cc2[nH]c1=O)OCCO3	nt	-1%	0.77
COc1ccccc1N1CCN(C2CCN(C3CCC(c4ccccc4)CC3)CC2)CC1 (stereo unspecified)	nt	-8%	0.71
CCc1nc2sc3c(Cl)ncnc3c2c2c1CCCC2	nt	-8%	0.7
Cc1ccsc1/C=C1/SC(N2CCOCC2)=NC1=O	nt	-4%	0.69
COc1ccc(C(=O)N=c2c(C#N)cc3c(=O)n4cccc(C)c4nc3n2Cc2ccco2)cc1	nt	31%	0.65
CC1=CC2=NC(=O)CC(C)(C(=O)N(CC(=O)NC(C)C)C3CCCC3)N2C=C1 (stereo unspecified)	nt	-1%	0.69
CCOC(=O)c1cc(-c2ccc(Cl)s2)nc2c1c(C)nn2C	nt	-6%	0.79
CCn1cc(C(=O)Nc2cccc(C)c2)c(=O)c2ccc(C)nc21	nt	-7%	0.72
CCOC(=O)c1[nH]c2cc(OC)c(OC)cc2c1NC(=O)CN1CCN(C)CC1	nt	4%	0.66
CCN(Cc1cc2ccc(C)cc2[nH]c1=O)C(=O)c1ccncc1	nt	-5%	0.75
CN(C)S(=O)(=O)N(CC(=O)Nc1ccccc1C(F)(F)F)c1ccccc1	nt	15%	0.75
COC(=O)c1ccccc1NC1=C/C(=N\S(=O)(=O)c2ccc(C(=O)O)cc2)c2ccccc2C1=O	-2.4	nt	0.63
CN(C)CCCN(C(=O)c1sc2ccccc2c1Cl)c1nc2c(F)cccc2s1	0.2	nt	0.66

Reprinted from the part before: 3 entries, followed by the next part.
SMILES	HNF4A DNA FP	Vif A3G	E coli growth
CN(C)S(=O)(=O)N(CC(=O)Nc1ccccc1C(F)(F)F)c1ccccc1	nt	15%	0.75
COC(=O)c1ccccc1NC1=C/C(=N\S(=O)(=O)c2ccc(C(=O)O)cc2)c2ccccc2C1=O	-2.4	nt	0.63
CN(C)CCCN(C(=O)c1sc2ccccc2c1Cl)c1nc2c(F)cccc2s1	0.2	nt	0.66
COc1cc(C(CCN2CCCC2)c2c(OC)cc(OC)c3c(C)cc(=O)oc23)cc(OC)c1OC (stereo unspecified)	-2.0	nt	0.66
CCCCC(=O)Nc1ccc2c3c(cccc13)CC2	2.5	nt	0.67
Cc1cc(C)c2[nH]c(O)c(N=NC(=S)NCC3CCCO3)c2c1 (stereo unspecified)	0.3	nt	0.68
O=C(NC1CCCCC1)c1ccc2c(c1)S(=O)(=O)c1ccccc1C2=O	-3.0	nt	0.68
O=C(c1ccccc1Sc1ccc([N+](=O)[O-])cc1)N1CCCCC1	192	nt	0.69
CC(Sc1nnc2c(n1)C1CCC2(C)C1(C)C)C(=O)Nc1ccccc1 (stereo unspecified)	3.8	nt	0.69
CCN(CC)S(=O)(=O)c1ccc(NS(=O)(=O)CC23CCC(CC2=O)C3(C)C)cc1 (stereo unspecified)	3.6	nt	0.71
CCn1c(=O)c(C(=O)Nc2cccnc2)c(O)c2ccccc21	0.1	nt	0.67
COc1ccc(NC(=O)c2sc(N3CCOCC3)nc2-c2ccccc2)c(OC)c1	1.0	nt	0.7
CCCCC(=O)NCc1ccc(F)cc1	-0.4	nt	0.7
CC(=O)c1ccc(NC(=O)c2ccc(NC(=O)c3ccco3)cc2)cc1	86*	nt	0.69
CCCCCCC(=O)Nc1nnc(CC)s1	2.9	nt	0.71
CC1CN(C(=O)C2(C)CC2(Br)Br)CC(C)O1 (stereo unspecified)	0.1	nt	0.66
COc1ccc(C2=NN(C(=O)/C=C/c3ccccc3)C(c3ccccc3)C2)c(OC(C)=O)c1 (stereo unspecified)	-0.1	nt	0.68
NS(=O)(=O)c1ccc(NC(=O)COC(=O)CCC2CCCCC2)cc1	-1.4	nt	0.62
CC(OC(=O)c1ccccc1NS(=O)(=O)c1cccc(C(F)(F)F)c1)C(=O)N(C)Cc1ccccc1 (stereo unspecified)	-1.2	nt	0.72
CCOc1ccc(OCC)c(NC(=O)CSc2nnnn2CC)c1	-1.4	nt	0.7
COc1ccc(-c2csc(NC(=O)COc3ccc(N(C)S(=O)(=O)c4ccc(C)cc4)cc3)n2)cc1	2.9	nt	0.73
Cc1ccc(C(=O)Oc2coc(CSc3nnc(NC(=O)C4CC4)s3)cc2=O)cc1C	-1.4	nt	0.67
O=C1CN(C(=O)c2cc3ccccc3o2)c2ccccc2N1	27	nt	0.72

Molecules above that contain bromine, in the order listed:
SMILES	HNF4A DNA FP	Vif A3G	E coli growth
COc1c(Br)cc2c(C)c(C(=O)N3CCOCC3)oc2c1Br	nt	?	0.74
Brc1ccc2[nH]c3c(N4CCc5ccccc5C4)ncnc3c2c1	nt	?	0.72
CC1CN(C(=O)C2(C)CC2(Br)Br)CC(C)O1 (stereo unspecified)	0.1	nt	0.66

Continuation.
SMILES	HNF4A DNA FP	Vif A3G	E coli growth
Cc1cccc(NC(=S)NCC(c2cccnc2)N(C)C)c1C (stereo unspecified)	-0.4	nt	0.69
COc1ccc(CN(CCC(c2ccccc2)c2ccco2)C(=O)c2ccco2)cc1 (stereo unspecified)	-4.4	nt	0.68
O=C(COC(=O)CCC(=O)c1cccs1)Nc1ncc(Cl)cc1Cl	-3.4	nt	0.7
CCOC(=O)c1c(NC(=O)C2COc3ccccc3O2)sc2c1CCN(Cc1ccccc1)C2 (stereo unspecified)	-3.7	nt	0.77
Cc1ccc(NC(=O)NC(=O)CSc2nnc(-c3ccc(Cl)cc3Cl)n2N)c(C)c1	2.8	nt	0.67
CCNC(=S)NNC(=O)c1ccccc1Cl	0.3	nt	0.68
COC(=O)c1c(NC(=O)CC2Nc3cc(C)c(C)cc3NC2=O)sc(C)c1C (stereo unspecified)	17	nt	0.7
COc1ccccc1NC(=O)c1ccc(NC(=O)COC(=O)C2CCCO2)cc1 (stereo unspecified)	-2.5	nt	0.68
CCCCCCn1c(O)c(/C=C2\C=NN=C2c2ccccc2)sc1=S	0.0	nt	0.7
Cc1ccccc1OCCn1c(CCNC(=O)C(C)C)nc2ccccc21	0.5	nt	0.69
COc1cc(-c2nnc(CSc3nnc(N)s3)o2)cc(OC)c1OC	-0.1	nt	0.71
Cc1cc(C)cc(NC(=O)C(=O)NCc2ccccn2)c1	-1.1	nt	0.66
O=C1CN(C(=O)CSc2nnc(Nc3ccccc3)s2)c2ccccc2N1	4.5	nt	0.67
COC(=O)c1ccc(NC(=S)NNC(=O)CC(C)C)cc1	1.2	nt	0.7
O=C(CCCC(=O)N1CCc2ccccc21)N1CCc2ccccc21	1.0	nt	0.68
Cc1cc(Cl)ccc1NC(=S)NCCN1CCOCC1	2.0	nt	0.69
CC(=O)c1cccc(NC(=S)NC(=O)c2ccc(Br)cc2)c1	-0.1	nt	0.68
O=C(/C=C/c1ccc(Cl)cc1)N(Cc1ccccc1)C1CCS(=O)(=O)C1 (stereo unspecified)	-1.2	nt	0.68
COc1ccc(N2CCCn3c2nc2c3c(=O)n(Cc3ccc(F)cc3)c(=O)n2C)c(OC)c1	-1.4	nt	0.66
Cc1ccc(NC(=O)COc2ccc(CCO)cc2-n2nc3ccccc3n2)cc1C	0.6	nt	0.7
CN(C)c1ccc(N=Nc2ccccc2C(=O)OCC(=O)N(C)C2CCCCC2)cc1	2.2	nt	0.71
CCOc1ccccc1CNC(=O)Cn1nc(C)c2c(C)n(-c3ccc(C)cc3)nc2c1=O	3.6	nt	0.73
CN(C)CCNC(=O)/C(=C/c1ccc(-c2ccc(Cl)cc2)o1)NC(=O)c1ccccc1	-1.8	nt	0.68
Cc1ccc(S(=O)(=O)N(C)C)cc1-n1c(SCC(=O)Nc2ccccc2)nc2ccccc2c1=O	0.8	nt	0.71
COc1ccc(-n2nnnc2Sc2ccc(S(=O)(=O)N3CCOCC3)cn2)cc1	2.1	nt	0.65
CCC(=O)N1c2ccccc2C(N(C(C)=O)c2ccccc2)CC1C (stereo unspecified)	1.2	nt	0.7
Cc1cc(C)c(NC(=O)COC(=O)c2cccc3c2C(=O)c2ccccc2C3=O)c(C)c1	-4.0	nt	0.68
Cc1cccc(N=C2NC(=O)/C(=C/C=C/c3ccco3)S2)c1C	-18	nt	0.7
O=c1c2ccccc2c(-c2ccc(O)cc2)nn1-c1cccc(C(F)(F)F)c1	-0.3	nt	0.68
COc1cc(NC(=O)c2cccs2)c(OC)cc1NC(=O)c1cccs1	-0.8	nt	0.67
C=CCN(CC=C)C(=S)NCCc1ccc(OC)c(OC)c1	1.3	nt	0.71
S=C(c1ccc(-c2ccccc2Cl)o1)N1CCCCC1	0.3	nt	0.67
Cc1ccc(NC(=O)CSc2nnc(C(F)(F)F)n2C)cc1[N+](=O)[O-]	-2.5	nt	0.66
CCOC(=O)C(=NC(C)CC)NNc1cccc(C(F)(F)F)c1 (stereo unspecified)	-1.2	nt	0.71
Cc1nn(CC(=O)Nc2cccc(S(N)(=O)=O)c2)c(C)c1[N+](=O)[O-]	-1.1	nt	0.65
COc1ccccc1C1=CC(=O)CCC1	-2.9	nt	0.68
COc1ccc(Nc2nc(Cl)nc(NCCO)n2)cc1	1.5	nt	0.71
COc1ccc(SCCN2CCN(C)CCC2=O)cc1	4.8	nt	0.68

Gathered by group, the entries above containing a CF3 group (five)
SMILES	HNF4A DNA FP	Vif A3G	E coli growth
CN(C)S(=O)(=O)N(CC(=O)Nc1ccccc1C(F)(F)F)c1ccccc1	nt	15%	0.75
CC(OC(=O)c1ccccc1NS(=O)(=O)c1cccc(C(F)(F)F)c1)C(=O)N(C)Cc1ccccc1 (stereo unspecified)	-1.2	nt	0.72
O=c1c2ccccc2c(-c2ccc(O)cc2)nn1-c1cccc(C(F)(F)F)c1	-0.3	nt	0.68
Cc1ccc(NC(=O)CSc2nnc(C(F)(F)F)n2C)cc1[N+](=O)[O-]	-2.5	nt	0.66
CCOC(=O)C(=NC(C)CC)NNc1cccc(C(F)(F)F)c1 (stereo unspecified)	-1.2	nt	0.71

The list is partial (hit frequency here may not be typical).
